Bioassay records (PubChem BioAssay)
NPYLR7 agonist = activates Aedes aegypti NPYLR7 receptor | HEK293T NPYLR7/Galpha15, GCaMP6s calcium fluorescence | activation, % at 10 µM | hit rate 0.15% among 270,000 | AID 1259423; in the data active = activation above about 40%;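 note: 0% = vehicle and 100% = reference agonist at the receptor; some compounds past the cut are filed as inactive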
NPYLR7 agonist max-min = further read-out of NPYLR7 agonist, marked with its call; activation, %; measured here: Max-Min RFU normalised activation; some inactives read as strong as hits;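 span of the calcium signal over five minutes; 0% = vehicle and 100% = native peptide agonist; compound fluorescence can raise it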
The depositor's hits bear a star; & = joins results of further samples. An excerpt (hit frequency here may not be typical).

SMILES	NPYLR7 agonist	NPYLR7 agonist max-min
CC1(C)Oc2ccc(NS(=O)(=O)c3ccc(S(=O)(=O)NC4CC4)cc3)cc2O1	5	4
Cc1c(Cl)cccc1CNC(=O)c1cc(-c2ccc3c(c2)OCO3)nc2ccccc12	20	6
Cc1nc(C)c(Cc2ccc(F)cc2)c(N2CCN(C(=O)c3ccc(-c4ccccc4)cc3)CC2)n1	8	3
O=S(=O)(Nc1nc2ccccc2[nH]1)c1ccccc1	-2	-4
CNc1ncc(CN(C)C(=O)C2(Oc3ccc(C)cc3)CCNCC2)cn1	23	8
COCCN(CC(=O)N(Cc1ccc2c(c1)OCO2)Cc1sccc1C)C(=O)Nc1cccc(F)c1	6	17
COc1cccc(Cn2c(=O)c(C(=O)Nc3cccc(F)c3)nn(-c3ccccc3F)c2=O)c1	-4	9
CC1Oc2c(C(=O)N3CCN(Cc4ccc(Cl)s4)CC3)cccc2C1C (configuration not stated)	3	3
CN(C(=O)COc1cc(Cl)ccc1Cl)C1CCS(=O)(=O)C1 (configuration not stated)	13	11
Fc1cnc(NCc2cn3c(n2)SCC3)nc1N1CCOCC1	19	5
CC(C)CCNC(=O)c1cncn1-c1ccc(F)cc1	3	2
CCCCN(CC(=O)N(CCc1c[nH]c2ccccc12)Cc1ccc(OC)cc1)C(=O)c1ccco1	16	14
CCOC(=O)CN([C@H]1[C@H](O)[C@@H]2O[C@H]1c1ccccc12)S(=O)(=O)c1cccs1	3	5
O=C(Nc1ccc([N+](=O)[O-])cc1Cl)c1cc(Cl)ccc1O	-2&-8&2	-4&-12&-15
CCOC(=O)c1cc(-c2cccc(NC(=O)c3ncoc3-c3ccc(OC)cc3)c2)n(-c2ccccc2OC)n1	3	0
COc1ccc(CN2C3CCC2CC(NC(=O)c2c(C)noc2C)C3)c(OC)c1 (configuration not stated)	14	28
COc1ccc(NS(=O)(=O)c2cc(C(C)(C)C)ccc2C)cc1S(N)(=O)=O	14	12
COCc1c(Br)c(C)nc(OCC(=O)N/N=C\c2cc(C)n(-c3ccc(I)cc3)c2C)c1C#N	7	13
Cc1ccc(-n2nc(C(C)(C)C)cc2NC(=O)CN(C)C(=O)Nc2cc(C(F)(F)F)cc(C(F)(F)F)c2)c(C)c1	10	14
CCCN(C/C=C/c1ccccc1)C(=O)c1ccc2[nH]c(=O)c(=O)[nH]c2c1	12	1
COCCNC(=O)[C@@]1(OCc2cccc(OC)c2)CC(OCc2ccccc2)[C@@H]2OC(C)(C)O[C@@H]2C1 (some centres not stated)	21	18
COc1ccc(OC)c(C2SCCN2S(=O)(=O)c2ccc(Cl)cc2)c1 (configuration not stated)	8	3
COc1ccc(N2C(=O)CSC2c2cccc(F)c2)c(OC)c1 (configuration not stated)	-4	-11
Cc1ccsc1CN(Cc1ccoc1)CC(C)C	-4	-8

Part of the list above in order of number of heavy atoms, rising:
SMILES	NPYLR7 agonist	NPYLR7 agonist max-min
COc1ccc(N2C(=O)CSC2c2cccc(F)c2)c(OC)c1 (configuration not stated)	-4	-11
COc1ccc(OC)c(C2SCCN2S(=O)(=O)c2ccc(Cl)cc2)c1 (configuration not stated)	8	3
COc1ccc(NS(=O)(=O)c2cc(C(C)(C)C)ccc2C)cc1S(N)(=O)=O	14	12
COc1ccc(CN2C3CCC2CC(NC(=O)c2c(C)noc2C)C3)c(OC)c1 (configuration not stated)	14	28
Cc1ccc(-n2nc(C(C)(C)C)cc2NC(=O)CN(C)C(=O)Nc2cc(C(F)(F)F)cc(C(F)(F)F)c2)c(C)c1	10	14

(list continues)
SMILES	NPYLR7 agonist	NPYLR7 agonist max-min
COc1ccc(CC2(CO)CCN(C(=O)c3ccc4ncccc4c3)CC2)cc1	2	-1
CC(Nc1ccc(N(C)C(C)C)c(F)c1)C(=O)NC(=O)NC(C)(C)C (configuration not stated)	-1	-1
CC(C(=O)Nc1cccc(Cl)c1)S(=O)(=O)c1ccc([N+](=O)[O-])cc1 (configuration not stated)	-7	-6
CCC(=O)N1CCC1(C)C(=O)Nc1ccc(Cl)c(Cl)c1 (configuration not stated)	-2	-2
Cc1cccc(Nc2ccc(NC(=O)c3ccccc3)c3c2C(=O)c2ccccc2C3=O)c1	-2	-8
COc1ccc(C(=O)N2CCCC(Nc3cc(C)ccc3OC)C2)c(OC)c1 (configuration not stated)	19	17
CC1=CC[C@@H]2CN(C(=O)c3cc(C)nc4onc(C)c34)C[C@@H]2C1	8	5
O=C1C=CC(=O)N1c1cc(Cl)cc(Cl)c1	-6	-12
C=C(Br)CN1CCN(C(CC)CO)CC1 (configuration not stated)	8	5
O=C(Nc1c2c(nn1-c1ccccc1)CCC2)c1cscn1	0	25
Cc1cc(-c2ccc(C=C3C(=O)NC(=O)NC3=O)o2)c([N+](=O)[O-])cc1C	-11	-21
COc1ccc(S(=O)(=O)NCCCN2CCOCC2)cc1N1CCN(C(=O)C(F)(F)C(F)F)CC1	24	17
COc1cccc(CO[C@]2(C(=O)NC3CC3)CC(OCc3cccc(F)c3F)[C@H](O)[C@H](O)C2)c1 (some centres not stated)	26	22
CC1c2c(cnn2C)C(=O)N1Cc1nc2ccccc2s1 (configuration not stated)	19	2
COC(=O)C1=C(C)N=c2s/c(=C3\C(=O)N(C)c4ccccc43)c(=O)n2C1c1cccs1 (configuration not stated)	2	0
COCCNC(=O)Cn1c(CO)cnc1SCc1ccccc1Cl	6	4
CCOC(=O)C(C#N)=CNc1cc(C)c(C(=O)OCC)s1	7	13
O=C(CCl)N1CCN(Cc2cccs2)CC1	-5	-9
CCOC(=O)C1=C(C)NC2=C(C(=O)CC(C)(C)C2)C1C (configuration not stated)	-13	-15
Cc1noc(C(C)C)c1C(=O)NC(C)Cc1ccccc1F (configuration not stated)	-24&21	-23&18
CCCNC(=O)NC(=O)CSc1nc2ccccc2s1	-5	-11
CC1=CC[C@@H]2CN(Cc3cccc(OCCO)c3)C[C@@H]2C1	10	9
CC(C)(C)NC(=O)N1CCn2cccc2C1c1ccccc1F (configuration not stated)	8	3
CCOC(=O)C1CCCN(C(=O)c2cc(-c3cccc(OC)c3)nn2-c2cccc([N+](=O)[O-])c2)C1 (configuration not stated)	-4	-4
COC(=O)C(NC(=O)c1ccccc1)=C1C=C(c2ccccc2)OC(c2ccccc2)=C1	12	31
Cc1cc(C)n(-c2cc(NCCNC(=O)Nc3ccc4c(c3)OCO4)ncn2)n1	-8	-13
Clc1ccc(C2Oc3ccccc3C3CC(c4ccccc4)=NN32)c(Cl)c1 (configuration not stated)	-9	-13
CC(C)N1CCC(CNC(=O)CCO)C1 (configuration not stated)	4	-1
CO[C@H]1C(=O)N(C)C2(CCN(C(=O)CCO)CC2)[C@@H]1C(=O)N(C)c1ccccc1	0	13
Cc1cc(NCc2cccnc2)n2nc(C)c(-c3ccccc3)c2n1	-3	-6
CSc1ccc(C(=O)N2CCN(c3cccc4[nH]ccc34)CC2)c(-c2cccc(F)c2)c1	-5	-11
COCc1cc(N2CCN(c3ccccc3F)CC2)nc(SCc2ccc(C(=O)N3CCCC3)cc2)n1	14	18
COC(=O)C(O)(C1C(=O)NN=C1C)C(F)(F)F (configuration not stated)	1	-5
O=C(c1cnc2n(c1=O)CCS2)N(Cc1ccccc1)c1ccccc1	-3	-5
CC(C)(C)N1CC(CNc2nccc(C3CCCC3)n2)CC1=O (configuration not stated)	6	2
CCOC(=O)c1ccc(NC(=O)Cn2c(-c3nnc(C)o3)cc3ccccc32)cc1	19	14
N#Cc1cccc(OC2CC3CCC(C2)N3C(=O)c2ccc(CSc3c(F)c(F)cc(F)c3F)cc2)c1 (configuration not stated)	13	4
CC(C)OCCCn1c(SC(C)C(=O)N2CCc3ccccc32)nc2cc(Cl)ccc2c1=O (configuration not stated)	6	2
CCCCCCCCCCCCCCCC(=O)Nc1ccc2[nH]cc(CCN3CCc4ccccc4C3)c2c1	7	-2
CCCCN(C(=O)NC(C)(C)C)c1c(N)n(CCC)c(=O)[nH]c1=O	-1	5
COC(=O)NNC(=O)c1csc(-c2cc3ccccc3[nH]2)n1	1	-2
CCOc1ccc(/C=C/C(=O)Nc2nc3ccc(C)cc3s2)cc1	0	-6
CN1CC2(CCN(C(=O)c3ccc4sc5c(c4c3)CCNC5=O)C2)OC1=O (configuration not stated)	8	6
O=S(=O)(NCc1ccccc1F)c1c(Cl)cccc1Cl	5	2
CC(=O)c1ccc(NC(=O)CSc2nc(-c3cccc(F)c3)nc3c2c(=O)n(C)c(=O)n3C)cc1	-3	-4
CN(Cc1cnc2ccccn12)C(=O)c1cc(COc2cncc(Cl)c2)on1	5&-4	0&-5
COc1cccc(CN2CCNC(=O)C2CC(=O)NCCOc2cccnc2)c1OC (configuration not stated)	8	6
CCN1CCN(C(=O)c2ccc(Br)o2)CC1	-8	-14

Single values from above:
CCOc1ccc(/C=C/C(=O)Nc2nc3ccc(C)cc3s2)cc1 | NPYLR7 agonist max-min = -6
CCCCCCCCCCCCCCCC(=O)Nc1ccc2[nH]cc(CCN3CCc4ccccc4C3)c2c1 | NPYLR7 agonist max-min = -2
COc1cccc(CN2CCNC(=O)C2CC(=O)NCCOc2cccnc2)c1OC (configuration not stated) | NPYLR7 agonist max-min = 6

The list goes on:
SMILES	NPYLR7 agonist	NPYLR7 agonist max-min
CCc1ccc(S(=O)(=O)N2CCN(c3ccc4nnc(CC)n4n3)CC2)s1	5	10
O=S(=O)(c1ccccc1Cl)N(CCO)c1ccc(Br)cc1	7	4
CN1CCC2(CC1)CN(C(=O)CN(C)Cc1cccnc1)CCN2C	-7	-9
CN(C)C(=O)Cn1cc(C(=O)NC(CC(C)(C)C)c2ccccc2)nn1 (configuration not stated)	11	9
Cc1ccc(-n2nnc(C(=O)OCc3ccccc3F)c2C)cc1	-23	-27
Cc1nnc(SCCCNC(=O)[C@@]23CC[C@@](C)(OC2=O)C3(C)C)s1	19	13
COc1ccccc1C(=O)Nc1ccc2c(c1)CN(C(=O)C1=CCCC1)CC2	1	0
CCN(CC)CCCC(C)NC(=O)c1cc(-c2ccccc2)nc2cc(C(C)(C)C)nn12 (configuration not stated)	8	7
CCNC(=O)c1cccc(-c2ccc(F)cc2OC)c1	1	-3
N#Cc1ccc(-c2ccc(OS(=O)(=O)c3cnc[nH]3)cc2)cc1	4	-3
CNC(=O)c1cccnc1NCCC(=O)Nc1cccc(Cl)c1C	8	5
Cc1cc(C(=O)N(C)CC(=O)c2ccc(O)cc2)n[nH]1	10	9
FC(F)(F)c1ccnc(SCc2csc(Cc3ccc4c(c3)OCO4)n2)n1	15	21
CCOC(=O)N1CCN(C(=O)c2cc3n(n2)CCN(Cc2c(F)cccc2Cl)C3=O)CC1	-4	-1
O=C1N(c2ccc(Cl)cc2)C(c2ccc3c(c2)OCO3)C1(F)F (configuration not stated)	4	9
COCc1nc(N2CCCC(OCc3ccccn3)C2)c2cnn(C)c2n1 (configuration not stated)	3	2
Cc1cc(Cl)ccc1N1CCN(C(=O)COc2ccc(Cl)cc2)C(C)C1=O (configuration not stated)	-3	5
Clc1cccc(NCn2nnc3ccccc32)c1Cl	6	7
CCOCCCn1c(C)cn2c3c(=O)n(Cc4ccccc4C)c(=O)n(C)c3nc12	2	2
COC(=O)C1C(=O)Oc2c(Br)cc(Br)cc2C1C1CCOC1=O (configuration not stated)	1	-1
CC1(C(=O)Nc2ccc(N3CCCC3)nc2)CCCO1 (configuration not stated)	-1	-2
CC(C)=CCC/C(C)=C/CNC(=O)c1cncn1-c1ccc(-c2cc(C(F)(F)F)cc(C(F)(F)F)c2)cc1	11	6
COc1cccc(C(=O)NC2CCN(c3ccccc3C(=O)NCC3CCCCC3)CC2)c1	-1	1
Cn1c(=NC(=O)CC23CC4CC(CC(Br)(C4)C2)C3)sc2ccccc21	2	1
Cn1c(=O)[nH]c(=O)c2c1nc(N1CCCCCC1)n2Cc1ccccc1F	3	1
c1ccc(-n2nccc2CN2CCc3[nH]cnc3C2c2cccnc2)cc1 (configuration not stated)	10	8
NC(=O)Nc1ccc(Oc2ccc(C(F)(F)F)cn2)c(F)c1	4	3
Cc1cccnc1CN(Cc1ccccc1)C(=O)CSc1nnc(N)s1	-2	-2
CCN1C(=O)N(C2Cc3ccccc3C2)C(=O)C12CCN(Cc1cn[nH]c1-c1ccc(OC)cc1)CC2	3	-2
Cc1ccc(N2C(=O)CSC2c2ccc(NC(=O)CCc3ccccc3)cc2)cc1F (configuration not stated)	5	8
CCN1CCN(C(=O)c2c(C)nn(-c3cccc(C)c3)c2C(C)C)CC1	-2	3
NC(=O)CC1c2cccnc2C(=O)N1Cc1ccccc1 (configuration not stated)	5	16
Oc1cccc(/C=N\Nc2nc(N3CCCC3)nc(N3CCCC3)n2)c1	-8	-13
Cc1c(S(=O)(=O)Nc2ccc(OC(F)(F)F)cc2)c(=O)n(C)c(=O)n1C	4	3
Cc1nn2c(N3CCOCC3)cc(C(C)(C)C)nc2c1-c1ccc(Cl)cc1	0	-2
CCNS(=O)(=O)c1ccc2c(c1)N(S(=O)(=O)c1ccc(OC)c(OC)c1)CC2	-1	-3
COc1ccc(-c2csc(NC(=O)c3ccc(=O)n(C)n3)n2)cc1F	7	2
Cc1cc(C)cc(N2CCN(C(=O)c3ccc(C4CCNC4)cc3)CC2=O)c1 (configuration not stated)	1	-6
CC(C)(CO)c1cc2cc(NC(=O)C3(c4ccc5c(c4)OC(F)(F)O5)CC3)c(F)cc2n1C[C@@H](O)CO	-5	-13

A different layout for part of the listing above.
SMILES,NPYLR7 agonist,NPYLR7 agonist max-min
CN(C)C(=O)Cn1cc(C(=O)NC(CC(C)(C)C)c2ccccc2)nn1 (configuration not stated),11,9
CCN1CCN(C(=O)c2ccc(Br)o2)CC1,-8,-14
